Bioassay records (PubChem BioAssay)
GLA inh pH 4.5: qHTS Assay for Inhibitors of Human alpha-Galactosidase at pH 4.5; activity change, negative = inhibition, % at 105 µM; Alpha-galactosidase A (Homo sapiens), P06280; 230,000 tested, under 10 active; purified enzyme, 4-MU-alpha-Gal fluorescence, pH 4.5; inconclusive = small, poorly fitted or top-dose-only inhibition, or a rising curve; inactive = flat fitted curve, though single readings scatter; no compound was filed as active;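 further: 0% = full activity with enzyme and -100% = basal without enzyme; dose as in the result columns while the protocol names 77 µM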
miR-21 reporter: qHTS Assay for Modulators of miRNAs and/orActivators of miR-21; 340,000 tested, under 10 active; Potency, µM (doses to about 38.3 µM), inactives show at the highest dose reporter change, positive = more light; AID 2288, 2010; HeLa miR-21 FLuc reporter, luciferase, 48 h; active = well fitted rising curve with a large enough effect; inconclusive = small, poorly fitted or top-dose-only effect; inactive = no such curve, though single readings can be large or run the other way;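 further: % of control where 0% means no effect; miR-21 action dims this reporter so a rising signal means less miR-21 action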
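HeLa cells stably expressing CMV-driven firefly luciferase with a downstream miR-21 binding sequence, endogenously expressing miR-21, were treated with titrations (up to about 40uM final) for 48 hours at 37 degree Celsius. Luciferase luminescence was read after lysis.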
Rango release inh: qHTS Assay for Inhibitors of RanGTP induced Rango (Ran-regulated importin-beta cargo) - Importin beta complex dissociation; Snurportin-1 (Homo sapiens) + GTP-binding nuclear protein Ran (Homo sapiens) + Importin …; Potency, µM (doses to about 46.1 µM), for inactives: at the top dose activity change, negative = inhibition; hit rate 0.071% among 340,000; Biochemical FRET Rango-importin beta, RanGTP-induced dissociation; active means falling FRET ratio curve, often poorly fitted, with flat reads before Ran was added; inconclusive means other falling curves, or compound fluorescence or quenching; inactive means flat or rising ratio curve;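 further: potency means the concentration at half of the fitted maximal effect; % of control where 0% means no effect; nearly all actives have a fitted effect of over 45% in size; -100% = wells without RanGTP and RCC1; the record marks most hits as doubtful in a second field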
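Compounds sat 5 min at room temperature with 0.1 uM Rango biosensor plus 0.25 uM importin beta, then FRET pre-read. RanGTP-RCC1 (0.6 uM Ran, 2mM GTP, 0.2 uM RCC1) added for 45 min, and the CFP/YFP post-read measured blocked complex dissociation.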
Rango complex inh: qHTS Assay for Inhibitors of Rango (Ran-regulated importin-beta cargo) - Importin beta complex formation; Rango CFP/YFP FRET sensor + importin beta, 45 min; hit rate 0.031% among 340,000; AID 540263, 2011; Importin subunit beta-1 (Homo sapiens), Q14974; Potency, µM (titrated, usually from 92.2 µM), for the others: top-dose inhibition of complex formation; active = rising FRET ratio curve, often small or poorly fitted; inconclusive = mostly compound fluorescence or quenching in the first reads; inactive = flat curves in all reads;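 further: potency means the concentration at half of the fitted maximal effect; 0% = DMSO wells and 100% = buffer wells lacking importin beta; nearly all actives have a fitted effect of over 15% in size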
Target sequence (Q14974 whole entry, looked up): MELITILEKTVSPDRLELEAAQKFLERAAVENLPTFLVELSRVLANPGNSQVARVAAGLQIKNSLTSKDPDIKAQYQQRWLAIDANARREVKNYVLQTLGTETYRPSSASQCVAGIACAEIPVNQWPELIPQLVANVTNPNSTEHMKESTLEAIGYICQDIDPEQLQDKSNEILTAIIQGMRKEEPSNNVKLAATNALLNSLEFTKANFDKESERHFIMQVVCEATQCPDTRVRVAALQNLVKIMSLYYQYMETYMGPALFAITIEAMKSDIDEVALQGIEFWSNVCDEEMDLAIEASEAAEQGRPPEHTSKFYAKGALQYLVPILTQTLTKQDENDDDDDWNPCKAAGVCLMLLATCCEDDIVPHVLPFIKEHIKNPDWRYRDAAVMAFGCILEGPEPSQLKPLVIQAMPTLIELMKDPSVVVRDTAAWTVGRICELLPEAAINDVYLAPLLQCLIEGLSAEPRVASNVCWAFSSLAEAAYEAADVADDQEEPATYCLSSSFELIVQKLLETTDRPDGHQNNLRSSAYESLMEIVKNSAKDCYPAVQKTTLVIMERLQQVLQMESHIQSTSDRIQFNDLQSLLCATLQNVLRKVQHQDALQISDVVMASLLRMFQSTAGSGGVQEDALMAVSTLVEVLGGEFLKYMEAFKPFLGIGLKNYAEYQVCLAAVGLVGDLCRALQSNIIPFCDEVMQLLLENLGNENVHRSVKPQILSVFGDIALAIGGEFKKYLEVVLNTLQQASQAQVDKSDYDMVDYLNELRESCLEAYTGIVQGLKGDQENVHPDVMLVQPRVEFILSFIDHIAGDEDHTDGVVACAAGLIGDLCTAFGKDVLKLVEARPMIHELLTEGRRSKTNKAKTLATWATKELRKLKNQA
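Inhibition scored from the CFP 486 nm/YFP 530 nm FRET ratio 45 min after adding 0.125 microM importin beta to 50 nM Rango biosensor preincubated 5 min with compound (room temperature, PBS with DTT, Tween-20, BSA). No-importin wells as positive control.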
An asterisk follows results filed as active; ? = inconclusive; . = no result given; & = joins results of further samples. The list is partial; the hit share may differ from the screen's.

Results follow in this order: GLA inh pH 4.5, miR-21 reporter, Rango release inh, Rango complex inh
Cc1nc2c3cc(F)ccc3n(Cc3ccccc3F)c2s1
 : 1, 9%, 0%, 4.0%
COc1ccc(C(=Cc2cc(OC)c(OC)cc2[N+](=O)[O-])C(=O)O)cc1
 : ., ., -17%, ?
Cc1cc(C(=O)N2CCCC(C(=O)c3cccc4ccccc34)C2)nc(C)n1 (configuration not stated)
 : -7, -12%, -12%, ?
CCOc1ccccc1C(C(=O)NC1CCCC1)N(C(=O)c1csnn1)C1CC1 (configuration not stated)
 : ., 1%, 13%, -0.3%
Cc1nnn(C23CC4CC(CC(C4)C2)C3)n1
 : 3, -6%, 4%, 1.6%
O=c1[nH]c2cccnc2n1-c1cccc([N+](=O)[O-])c1
 : 9, -9%, -6%, 0.5%
COc1ccc(CNc2nc(C)c([N+](=O)[O-])c(C)c2C#N)cc1
 : 8, -16%, 3%, 1.7%
CCc1nn2c(N)c(/C=C3\C=Nc4ccccc43)c(=O)nc2s1
 : -8&-2, -8%&-24%, ?, ?
NNC(=O)Cn1c(COc2ccc(Cl)cc2)nc2ccccc21
 : -2, -10%, 6%, 6.4%
O=C(NC1CCCC1)c1ccc(Cn2c(=O)[nH]c3ccsc3c2=O)cc1
 : 7, -4%, 5%, -2.4%
Cc1oc2cc3oc(=O)c(CCC(=O)NCCCN4CCCC4=O)c(C)c3cc2c1C
 : ., -21%, -5%, -3.2%
CC(C)CCN(C(=O)c1csnn1)C(C(=O)NC1CCCC1)c1ccccc1 (configuration not stated)
 : ., 4%, 3%, -2.3%
CC(Oc1ccccc1Br)C(=O)N1CCc2ccccc21 (configuration not stated)
 : -4, -25%, 0%, 0.0%
O=Cc1c(NCc2ccccc2)c2ccccc2[nH]c1=O
 : ., 0%, 1%, -1.5%
CCCNC(=O)COC(=O)/C=C/c1cccc(F)c1
 : 2, 2%, -15%, ?
CC(=O)c1ccccc1NC(=O)COC(=O)/C=C/c1cccs1
 : ., ., 3%, 2.2%
COc1cccc(C(=O)CN(C(=O)c2ccc(Cl)cc2Cl)N2C(=O)c3ccccc3C2=O)c1
 : -5, -11%, -1%, -7.9%
Cc1nc2ccccc2nc(C)c1=NOCc1ccc(Cl)cc1Cl
 : -7, -74%, 0%, -4.3%
O=C(O)c1cnn2c1NC(c1cccs1)CC2C(F)(F)F (configuration not stated)
 : 5, 0%, -4%, 0.1%
Cn1ncc(C#N)c1NC(=O)c1cc(-c2ccccc2Cl)on1
 : 5, -18%, -2%, -2.4%

Part of the list above in another layout.
Molecule: Cc1nnn(C23CC4CC(CC(C4)C2)C3)n1
  GLA inh pH 4.5: 3
  miR-21 reporter: -6%
  Rango release inh: 4%
  Rango complex inh: 1.6%
Molecule: O=c1[nH]c2cccnc2n1-c1cccc([N+](=O)[O-])c1
  GLA inh pH 4.5: 9
  miR-21 reporter: -9%
  Rango release inh: -6%
  Rango complex inh: 0.5%
Molecule: COc1ccc(CNc2nc(C)c([N+](=O)[O-])c(C)c2C#N)cc1
  GLA inh pH 4.5: 8
  miR-21 reporter: -16%
  Rango release inh: 3%
  Rango complex inh: 1.7%
Molecule: CCc1nn2c(N)c(/C=C3\C=Nc4ccccc43)c(=O)nc2s1
  GLA inh pH 4.5: -8&-2
  miR-21 reporter: -8%&-24%
  Rango release inh: ?
  Rango complex inh: ?

The listing continues:
Results follow in this order: GLA inh pH 4.5, miR-21 reporter, Rango release inh, Rango complex inh
O=C(CN1C(=O)c2ccccc2S1(=O)=O)c1ccc2c(c1)OCCO2
 : 1, ?, -2%, -0.3%
CCc1ccc(C(=O)COC(=O)CNC(=O)COc2ccccc2)cc1
 : 10, 1%, -8%, 5.4%
O=c1[nH]cnc2sc(-c3ccccc3)cc12
 : -3, -52%, 5%, -0.6%
O=C(NC(=S)Nc1ccc2[nH]c(=O)[nH]c2c1)c1ccccc1F
 : ., -27%, 18%, -2.9%
CC(C)N1C(=O)CCC1C(=O)NCc1cccs1 (configuration not stated)
 : -4, -2%, -7%, -2.4%
COC(=O)c1ccc(C)c(NC(=O)CCc2cc(OC)c(OC)c(OC)c2)c1
 : 2, -2%, 2%, 3.9%
CCN(CC)c1ccc(C(=O)NNC(=O)CNC(=O)c2ccco2)cc1
 : ., ., -11%, 1.4%
COc1ccc(CNC(=O)C(C)c2ccc([N+](=O)[O-])cc2)cc1 (configuration not stated)
 : 0, -1%, -15%, 2.0%
CC(=O)Nc1ccc(NC(=O)COC(=O)c2c(C)nn(-c3ccccc3)c2C)cc1
 : -2, -4%, 15%, 2.7%
COc1cc(OC)c(NC(=O)CCNS(=O)(=O)c2ccc3c(c2)oc(=O)n3C)cc1Cl
 : 8, 3%&0%, -13%, 0.4%
O=C(O)c1cccc(N2C(=O)c3ccc(Oc4ccc(Cl)cc4)cc3C2=O)c1
 : -2, -1%, 0%, 0.5%
C=CCOc1ccc(/C=C2\SC(N)=NC2=O)cc1OC
 : ., -25%, -16%, ?
COc1ccc(C(=O)N/N=C(\C)CC(=O)Nc2ccc3c(c2)OCO3)cc1
 : 9, -29%, 11%, 7.2%
O=S(=O)(NCc1csc(-c2cccnc2)n1)c1ccc(F)cc1
 : ., -2%, -3%, -0.7%
COc1ccc(/C(C#N)=C/c2c(-c3ccc(Cl)cc3)nc3c(C)cccn23)cc1
 : 2, 0%, 2%, -0.2%
CC(C)Cn1nc(NC(=O)C2CCCO2)c2cc3ccccc3nc21 (configuration not stated)
 : -11, -9%, ?, ?
Cc1cc(/C=C2/NC(=O)NC2=O)c(C)n1-c1cccnc1
 : -1, -22%, 17%, 2.1%
CCOC(=O)C1(CCCCCCOc2ccc(Cl)cc2)CO1 (configuration not stated)
 : -4, 16%, ., .
Cc1ccccc1N1C(=O)c2ccccc2C1Nc1cccnc1 (configuration not stated)
 : -1, -2%, 0%, -0.5%
Cc1ccc(NC(=O)CCC(=O)c2ccc(Br)cc2)cc1
 : ., -3%, -1%, -0.6%

Reprinted from the part before: 3 compounds; new compounds follow.
Results follow in this order: GLA inh pH 4.5, miR-21 reporter, Rango release inh, Rango complex inh
CCOC(=O)C1(CCCCCCOc2ccc(Cl)cc2)CO1 (configuration not stated)
 : -4, 16%, ., .
Cc1ccccc1N1C(=O)c2ccccc2C1Nc1cccnc1 (configuration not stated)
 : -1, -2%, 0%, -0.5%
Cc1ccc(NC(=O)CCC(=O)c2ccc(Br)cc2)cc1
 : ., -3%, -1%, -0.6%
CC1CC(C)CN(C(=O)c2ccc(Br)c(S(=O)(=O)N3CCOCC3)c2)C1 (configuration not stated)
 : ., ., -2%, -1.0%
COc1cc(/C=N/N=C2/C(=O)Nc3ccccc32)ccc1O
 : 2, -34%, 0%, -0.2%
Cc1ccccc1NC(=O)CN(C)S(=O)(=O)c1cccs1
 : ., 1%, -9%, 0.1%
O=C(/C=C/c1ccco1)N/C(=C\c1ccco1)C(=O)NCCc1nc2ccccc2[nH]1
 : -6, -6%, 7%, 2.0%
COc1cc(C=O)c(Br)cc1OCC(=O)NCc1ccccc1
 : 0, -16%, 8%, 3.5%
COc1ccc(C(=O)NCC(=O)N/N=C/c2cccc(OC(=O)c3ccco3)c2)cc1OC
 : 7, -3%, -13%, -1.2%
CCOC(=O)c1csc(-c2sccc2Br)n1
 : -8, -61%, 17%, 0.1%
CC(C)OC(=O)CC12CN(C)CC(CC(=O)OC(C)C)(CN(C)C1)C2=O
 : 1, -44%, 4%, -4.2%
CNC(=O)c1[nH]cnc1C(=O)NCC(=O)OCc1ccccc1
 : ., 1%, 14%, 0.2%
CO/N=C/c1cn(-c2ccc(Cl)cc2)nn1
 : 5, -38%, -3%, 1.9%

Full records as entered above. Values in the order: GLA inh pH 4.5	miR-21 reporter	Rango release inh	Rango complex inh
`O=c1[nH]c2cccnc2n1-c1cccc([N+](=O)[O-])c1` as listed: 9	-9%	-6%	0.5%
`CCOC(=O)C1(CCCCCCOc2ccc(Cl)cc2)CO1` (configuration not stated) as listed: -4	16%	.	.

Further compounds.
Results follow in this order: GLA inh pH 4.5, miR-21 reporter, Rango release inh, Rango complex inh
Cc1ccccc1OC(C)C(=O)Nc1cccnc1 (configuration not stated)
 : ., -3%, -1%, 1.5%
Cc1ccc(NC(=S)N/N=C/c2c(Cl)cccc2Cl)c(C)c1
 : 4, -4%, 0%, -0.4%
CC(=O)Nc1ccc(-c2nn[nH]n2)cc1Cl
 : -2, 0%, -11%, 8.7%
O=C(NNC(=O)c1ccc(NC(=O)c2ccccc2)cc1)c1ccc(F)cc1
 : ., -6%, 5%, -3.1%
COc1ccc(-c2nn(CC(=O)N3CCCCC3)c(=O)c3ccccc23)cc1
 : -21, -6%, ., .
C[C@H](CO)N1C[C@H](C)[C@@H](CN(C)S(=O)(=O)c2cccs2)Oc2c(NS(=O)(=O)c3ccc(F)cc3)cccc2C1=O
 : ., ., 7%, 4.9%
CC(=O)Nc1cc2c(cc1NC(=O)Cn1nc(-c3ccccc3F)ccc1=O)OCCO2
 : -2, 4%, 5%, -0.2%
CN(C)c1ccc(C=C2C(=O)OC(C)(C(C)(C)C)OC2=O)cc1 (configuration not stated)
 : 4, -6%, 5%, -0.4%
COc1cccc(CNC(=O)c2ccc(S(=O)(=O)N3CCCC3)cc2)c1
 : 0, 7%, 4%, 0.9%
Cc1cc(C)n2nc(SCC#N)nc2n1
 : 3, -3%, -17%, 2.1%

Given with each value named: entries from further up
> Cc1ccc(NC(=S)N/N=C/c2c(Cl)cccc2Cl)c(C)c1
  GLA inh pH 4.5 = 4
  miR-21 reporter = -4%
  Rango release inh = 0%
  Rango complex inh = -0.4%
> CC(=O)Nc1ccc(-c2nn[nH]n2)cc1Cl
  GLA inh pH 4.5 = -2
  miR-21 reporter = 0%
  Rango release inh = -11%
  Rango complex inh = 8.7%
> O=C(NNC(=O)c1ccc(NC(=O)c2ccccc2)cc1)c1ccc(F)cc1
  GLA inh pH 4.5 = .
  miR-21 reporter = -6%
  Rango release inh = 5%
  Rango complex inh = -3.1%
> COc1ccc(-c2nn(CC(=O)N3CCCCC3)c(=O)c3ccccc23)cc1
  GLA inh pH 4.5 = -21
  miR-21 reporter = -6%
  Rango release inh = .
  Rango complex inh = .

Next entries:
Results follow in this order: GLA inh pH 4.5, miR-21 reporter, Rango release inh, Rango complex inh
CCN(CC(=O)Nc1c(F)cccc1F)C(=O)CN(C)S(=O)(=O)c1ccc(F)cc1
 : ., ., 31%, ?
COc1ccc(CCNC(=O)Cn2c(=O)n(-c3cc(F)ccc3F)c(=O)c3sccc32)cc1OC
 : -4, 16%, 2%, 0.5%
CCN1C(=O)N[C@@H](c2cccc(F)c2)C(C(C)=O)=C1C
 : 10, ., -2%, 0.0%
CCOC(=O)N1CCN(C(=O)CN(Cc2ccccc2)S(=O)(=O)c2ccc(OC)c(C)c2)CC1
 : -8, -1%, 18%, -0.2%
O=C1CCC([N+](=O)[O-])C(c2ccccc2F)N1 (configuration not stated)
 : ., -1%, -2%, 0.8%
O=C1CCN(CCCc2ccccc2)CCN1[C@H](CO)Cc1ccccc1
 : ., 3%, 18%, -0.2%
Cc1ccccc1N(CC(=O)N1CCN(c2ccccc2)CC1)S(C)(=O)=O
 : -4, -1%, -9%, 0.0%
CCCn1nnc(NC(=O)c2ccc(OC)cc2)n1
 : 6, -42%, 0%, 3.5%
CC1CC2(CC(C)(C(=O)CSc3n[nH]c(-c4ccccc4Cl)n3)OC2=O)C(=O)O1 (configuration not stated)
 : -4, -8%, 3%, -0.4%
CCCCCCC(=O)NC(Nc1ccc(S(N)(=O)=O)cc1)C(Cl)(Cl)Cl (configuration not stated)
 : -1, 1%, 2%, -3.2%
COc1cccc(NC(=O)CSc2nnc(-c3cccnc3)o2)c1
 : ., ., 27%, -0.6%
CC1CCC(C(=O)NC(C(=O)NCCN2CCC(C)CC2)C(C)C)CC1 (configuration not stated)
 : 3, 1%, -10%, -0.4%
CC(C)(C)NS(=O)(=O)c1ccc(NC(=O)C2CCCO2)cc1 (configuration not stated)
 : ., -14%, -8%, ?
